# Source: PubChem
# Autofluor counter – counter-screen for toxin protease inhibitors: compound fluorescence; 3.1% of 360,000 active; compound autofluorescence counterscreen, microsphere flow cytometry; stronger effect = higher value; fluorescence intensity (concentration not given with the values);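 active = at least 3 SD above the mean of all compounds, about 16000 in these data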;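 note: 100 nL of 1 mM stock went into each well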
# ugtP null kill – growth inhibition of ugtP-null S. aureus, primary screen, RN4220 ugtP deletion, OD600 | 16 h; some inactives read as strong as hits | growth inhibition, % (test concentration not listed) | 0.54% of 330,000 active | AID 1259309, 2017;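 active = z-score under -3 and OD600 up to 0.15 on both plates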;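 note: plate controls were untreated wells for no effect and antibiotic for full effect; wells of about 80 µL received 100 nL stock; the first replicate is given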
# PrP UTR inh – inhibition of PrP 5' UTR reporter expression | 0.35% of 340,000 active | inhibition, % (test concentration not listed) | AID 488862, 2010 | cell-based PrP 5' UTR mRNA reporter, plate reader;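 active = every replicate at 50% or more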;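 note: 0 = median of the neutral control wells; tested in H4 reporter cells; numbers are from one replicate; inactives centre near -14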
# Mtb hypoxia rep – PubChem AID 1159583. fluorescence inhibition, % (no concentration beside the values). M. tuberculosis hypoxia-regulated fluorescent reporter, fluorescence. 0.1% of 300,000 active;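 active = 35 to 45% if threefold the growth effect, above 45% if 1.5-fold the growth effect; inactive = the rest, general growth blockers included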;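 note: wells of about 50 µL received 100 nL stock; 0% = vehicle wells and 100% = reference inhibitor wells; whole bacteria with a GFP reporter of the hypoxia response; strong numbers were not always called active; many hits fall short of the cut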
# RN4220 kill – growth inhibition of S. aureus RN4220, primary screen, OD600; 16 h; inhibition, % (concentration not given with the values); 0.33% of 330,000 active;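 active = z-score of -3 or lower and OD600 up to 0.18 on both plates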;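 note: plate controls were untreated cells for no effect and reference antibiotic for full effect; stock transfer was 100 nL into about 80 µL; one replicate is shown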
# BJeLR viability – MLPCN primary cell-based screen for lethality selective to Ras in HRASV12 cells. BJeLR (HRASV12) viability, CellTiter-Glo ATP luminescence, 48 h; reference of the scale not given here. 0.17% of 300,000 active. AID 1554, 2009. inhibition, % (concentration not given with the values);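 active = replicate mean above 50%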;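 note: 50 nL library stock added to about 25 µL; numbers are from one replicate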
# Mtb hypoxia rep growth – recorded beside Mtb hypoxia rep, whose call it bears; growth inhibition, %; measured here: M. tuberculosis growth (absorbance);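 0% = vehicle and 100% = reference antibiotic; read after six days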
# The depositor's hits bear a star; . = no result given.
1: Cc1ccc(CCNC(=O)C2CCN(S(=O)(=O)c3ccc4nc5c(c(C(=O)O)c4c3)CCCC5)CC2)cc1
2: CCOc1ccc2oc(C(=O)OCC(=O)NC3CC3)c(C)c2c1
3: O=C(CSc1nnc(Cc2cccs2)n1-c1ccccc1)NCc1ccc2c(c1)OCO2
4: COC(=O)c1cc(Br)ccc1-c1ccc(C=Nn2nnnc2N)o1
5: COC(=O)N1C(=O)[C@](c2ccc(Cl)cc2)(C(C)C)N1C(=O)OC
6: CCN(CC)Cc1c(-c2ccccc2)[nH]c2ccc(C)cc2c1=O
7: COc1ccccc1C(C)NS(=O)(=O)c1ccc(Cl)nc1 (stereo not drawn)
8: Cc1ccc(C(C)NC(=O)Cn2nc(C)c([N+](=O)[O-])c2C)cc1 (stereo not drawn)

Compound	1	2	3	4	5	6	7	8
RN4220 kill	5.3	-1.9	4.3	5.2	-4.1	1.2	3.5	.
PrP UTR inh	-14.0	2.7	-12.7	.	-18.8	-10.1	-7.3	-36.1
Mtb hypoxia rep	9.8	2.5	-4.6	5.6	-1.9	-2.2	12.7	.
BJeLR viability	4.5	-5.2	-6.4	.	2.1	-2.3	3.1	4.1
ugtP null kill	-1.0	-7.8	-3.9	6.5	-3.3	-0.6	-1.9	.
Mtb hypoxia rep growth	2.9	8.1	-2.7	8.4	-0.4	0.8	-1.3	.
Autofluor counter	6533	3332	4279	.	4266	10811	6569	8567

# A draw from above in order of count of non-hydrogen atoms, high to low:
3: O=C(CSc1nnc(Cc2cccs2)n1-c1ccccc1)NCc1ccc2c(c1)OCO2
6: CCN(CC)Cc1c(-c2ccccc2)[nH]c2ccc(C)cc2c1=O
5: COC(=O)N1C(=O)[C@](c2ccc(Cl)cc2)(C(C)C)N1C(=O)OC
7: COc1ccccc1C(C)NS(=O)(=O)c1ccc(Cl)nc1 (stereo not drawn)

Compound	3	6	5	7
RN4220 kill	4.3	1.2	-4.1	3.5
PrP UTR inh	-12.7	-10.1	-18.8	-7.3
Mtb hypoxia rep	-4.6	-2.2	-1.9	12.7
BJeLR viability	-6.4	-2.3	2.1	3.1
ugtP null kill	-3.9	-0.6	-3.3	-1.9
Mtb hypoxia rep growth	-2.7	0.8	-0.4	-1.3
Autofluor counter	4279	10811	4266	6569

# Later entries
9: CCN(CC)C(=O)c1cccc(NC(=O)c2ccc3c(=O)n4c(nc3c2)CCC4)c1
10: COc1ccc(Cl)cc1NC(=O)COC(=O)/C=C/c1c(C)nn(C2CCS(=O)(=O)C2)c1Cl (stereo not drawn)
11: Cc1ccc(N2CC(C(=O)N/N=C/c3cccc([N+](=O)[O-])c3)CC2=O)cc1 (stereo not drawn)
12: C/C(=N/NC(=O)CNC(=O)c1ccccc1F)c1ccc2c(c1)CCCC2
13: O=C(NCC1CCCO1)C(=O)NCC1CCCN1S(=O)(=O)c1ccccc1 (stereo not drawn)
14: CC(=O)c1ccc(OC(NC(=O)Cc2ccccc2)C(Cl)(Cl)Cl)cc1 (stereo not drawn)
15: CC(C)(C)SC(=O)C[C@@H]1NS(=O)(=O)OC2CCCCC21 (stereo partly drawn)
16: Cc1ccc(C(=O)NNC(=O)Cc2cccs2)cc1

Compound	9	10	11	12	13	14	15	16
RN4220 kill	0.8	.	.	.	2.8	1.4	23.8	-1.2
PrP UTR inh	-12.9	-5.3	-8.2	-31.6	-19.2	-22.0	-18.1	-25.6
Mtb hypoxia rep	-2.0	.	.	.	4.8	7.9	1.7	5.7
BJeLR viability	5.7	-8.3	11.8	-1.2	12.0	4.3	2.2	-14.7
ugtP null kill	-1.3	.	.	.	7.6	-2.7	9.2	-4.7
Mtb hypoxia rep growth	3.9	.	.	.	11.3	3.8	2.8	2.9
Autofluor counter	6107	3224	2725	4460	6172	11103	2908	8665

# Copied from above: entries 15 to 16
15: CC(C)(C)SC(=O)C[C@@H]1NS(=O)(=O)OC2CCCCC21 (stereo partly drawn)
16: Cc1ccc(C(=O)NNC(=O)Cc2cccs2)cc1

Compound	15	16
RN4220 kill	23.8	-1.2
PrP UTR inh	-18.1	-25.6
Mtb hypoxia rep	1.7	5.7
BJeLR viability	2.2	-14.7
ugtP null kill	9.2	-4.7
Mtb hypoxia rep growth	2.8	2.9
Autofluor counter	2908	8665

# Further records:
17: CCOC(=O)N1CCc2[nH]c3ccc(C)cc3c2C1
18: O=C(Nc1nc2ccccc2[nH]1)C12CC3CC(CC(C3)C1)C2
19: Cc1cccc(OCC(=O)NNC(=O)c2ccc([N+](=O)[O-])cc2)c1
20: Cc1cc(NC(=O)CSc2nc3ccccc3n2CCC#N)no1
21: O=C(CN(CCc1ccccc1)C(=O)CNS(=O)(=O)c1ccccc1)NCC1CCCO1 (stereo not drawn)
22: CCN1CCN(c2cc(C)c3cc(NC(=S)N4CCOCC4)ccc3n2)CC1
23: Cc1ccc(S(=O)(=O)N2CCN(CC(=O)N/N=C/c3ccc(C)o3)CC2)cc1
24: CC1CN(C2CCCCC2)c2nc3c(c(=O)n(C)c(=O)n3C)n2C1 (stereo not drawn)

Compound	17	18	19	20	21	22	23	24
RN4220 kill	-6.6	1.3	4.6	7.0	3.7	4.5	.	2.0
PrP UTR inh	-18.0	-56.2	-21.3	-6.4	5.9	-16.2	-5.2	-25.6
Mtb hypoxia rep	1.1	.	8.6	4.6	.	13.9	.	.
BJeLR viability	-2.2	0.6	3.8	-1.3	-5.0	7.2	9.6	-1.9
ugtP null kill	-0.1	-18.1	-6.0	12.4	5.9	-2.6	.	6.8
Mtb hypoxia rep growth	3.3	.	2.4	2.0	.	6.4	.	.
Autofluor counter	3161	2333	4154	3469	4043	4848	2482	4677

25: NS(=O)(=O)c1ccc(NCc2c(F)cccc2Cl)cc1
26: COCCNc1nc2nonc2nc1N1CCCC1c1nccs1 (stereo not drawn)
27: O=c1[nH]c(N2CCCCCC2)nc2ncn(Cc3ccccc3)c12
28: CC(Oc1ccccc1)C(=O)Nc1nc(-c2ccccn2)cs1 (stereo not drawn)
29: Cc1cc(N2C(=O)C3C4C=CC(C4)C3C2=O)ccc1Br (stereo not drawn)
30: Cc1cc(C(=O)NN=Cc2cc(C(C)(C)C)ccc2O)n[nH]1
31: Cc1c(C=NNC(=O)C(NC(=O)c2ccc3c(c2)OCO3)C(C)C)c2ccccc2n1C (stereo not drawn)
32: CCCCCCC(=O)c1c(O)n(-c2ccccc2OC)c(=O)[nH]c1=O (tested in a mixture with another compound)

Compound	25	26	27	28	29	30	31	32
RN4220 kill	2.8	5.6	3.0	9.5	-0.1	3.1	1.0	7.3
PrP UTR inh	11.1	-26.6	-7.2	5.8	-20.2	.	.	.
Mtb hypoxia rep	-5.4	-2.6	-3.1	21.0	-7.6	8.6	4.6	14.4
BJeLR viability	-1.1	4.8	-3.6	.	5.2	.	.	0.4
ugtP null kill	-6.3	2.6	-3.7	0.0	-9.4	11.2	-6.0	11.4
Mtb hypoxia rep growth	21.3	0.4	1.1	16.2	-0.3	2.9	-10.3	2.5
Autofluor counter	8836	3735	3439	.	4162	.	.	3479

# Entries by screen from the entries so far:
# Autofluor counter, entries 12–18 → 4460, 6172, 11103, 2908, 8665, 3161, 2333

# (more compounds)
33: CCOc1ccc(NC(=O)CNC(=O)c2nn(-c3ccc(OC)cc3)c(=O)c3ccccc23)cc1
34: CCOC(=O)N1CCN(Cc2nc3c(c(=O)n(C)c(=O)n3C)n2Cc2ccccc2C)CC1
35: CN1C(=O)CC(N2CCN(C(c3ccccc3)c3ccccc3)CC2)C1=O (stereo not drawn)
36: O=C(CNC(=O)c1cccs1)NC1=NCCS1
37: Nc1cc(=O)[nH]c(=O)n1Cc1ccco1
38: Cc1cc(C)nc(NC(=NCCc2c[nH]c3ccccc23)NC(=O)Nc2ccc(Cl)c(Cl)c2)n1
39: N#Cc1c(C(F)(F)F)cc(-c2ccccc2)nc1SCC(=O)Nc1sc2c(c1C#N)CCC2
40: CCS(=O)(=O)Nc1ccc(C2=NN(S(C)(=O)=O)C(c3cccs3)C2)cc1 (stereo not drawn)

Compound	33	34	35	36	37	38	39	40
RN4220 kill	3.0	4.9	4.6	0.5	1.5	-3.7	5.3	.
PrP UTR inh	-20.7	-16.2	2.5	-38.7	-40.4	-7.2	-31.4	-48.2
Mtb hypoxia rep	5.0	-5.8	17.1	0.7	6.2	-8.1	10.5	.
BJeLR viability	-3.8	3.2	-6.7	1.5	-7.4	-3.0	33.8	-18.8
ugtP null kill	4.5	9.0	-2.9	-3.7	0.3	-19.3	0.6	.
Mtb hypoxia rep growth	0.1	10.1	5.5	6.0	7.6	3.9	6.7	.
Autofluor counter	3038	4208	4292	9726	3351	2429	3150	5994

41: COc1cc(OC)cc(C(=O)Nc2ccc(NC(=O)c3ccco3)c(C)c2)c1
42: O=C(CN(C(=O)CNC(=O)c1ccco1)c1cccc(F)c1)NC1CCCCC1
43: CCCCC(=O)Nc1ccc(C(=O)NNC(=O)c2cccs2)cc1
44: CN(C)c1nc(C(=O)NN)nc(N(C)C)n1
45: COc1cccc2cc(S(=O)(=O)c3ccc(C)cc3)/c(=N/NS(=O)(=O)c3ccc(C)cc3)oc12
46: Cc1ccccc1CC(=O)N1CCCc2ccccc21
47: COC(=O)C1=C(C)OC(N)=C(C#N)C1c1cc(OC)c(OCC(N)=O)cc1Cl (stereo not drawn)
48: COCCN(C(=O)COC(=O)c1ccc2[nH]c(C)c(C)c2c1)c1c(N)n(Cc2ccccc2)c(=O)[nH]c1=O

Compound	41	42	43	44	45	46	47	48
RN4220 kill	4.3	-0.5	5.7	0.8	.	1.6	2.6	-0.1
PrP UTR inh	-22.8	-5.3	-14.9	-23.7	-25.7	-2.2	-32.1	-27.9
Mtb hypoxia rep	-0.7	0.4	3.1	6.1	.	1.6	0.2	8.0
BJeLR viability	35.9	-5.3	-2.7	-1.1	-5.5	-9.4	4.0	4.8
ugtP null kill	-1.9	-1.0	11.1	3.4	.	-1.2	0.6	6.9
Mtb hypoxia rep growth	-3.3	-4.3	3.3	4.6	.	14.9	2.9	-3.2
Autofluor counter	6041	3026	2305	9187	4129	3872	23456*	5908

49: O=S(=O)(c1ccc(Cl)c(S(=O)(=O)N2CCCC2)c1)N1CCCC1
50: C/C(=N\Nc1cc(N2CCOCC2)nc(C)n1)c1ccc(F)cc1
51: CCN(C(=O)C(C)Sc1ccc(S(=O)(=O)N2CCN(C)CC2)cn1)c1ccccc1 (stereo not drawn)
52: CCOC(=O)N1CCC(NC(=O)c2ccc3c(c2)N=C(CC)c2cc(C)ccc2S3)CC1
53: CCOc1ccccc1NC(=O)CSc1nc2ccccc2c(=O)n1CC1CCCO1 (stereo not drawn)
54: CCCCNC(=O)C1CC(c2cccc(F)c2)=NO1 (stereo not drawn)
55: CCOC(=O)c1ccc(NC(=O)N2CC3CC(C2)c2cccc(=O)n2C3)cc1 (stereo not drawn)
56: CC1CCCN(C(=O)C(=O)Nc2ccc3nc4n(c(=O)c3c2)CCCCC4)C1 (stereo not drawn)

Compound	49	50	51	52	53	54	55	56
RN4220 kill	2.6	.	7.9	0.7	6.5	-2.1	-1.3	-3.4
PrP UTR inh	-0.7	-23.8	-12.7	-10.1	-8.0	-52.1	-13.0	-17.2
Mtb hypoxia rep	5.4	.	6.5	1.6	2.0	.	-9.3	0.3
BJeLR viability	4.0	10.0	.	-1.7	-7.4	-1.6	-11.1	-10.1
ugtP null kill	1.2	.	11.6	-7.4	1.7	-2.2	1.7	-3.6
Mtb hypoxia rep growth	-8.2	.	9.0	5.2	1.5	.	-16.5	8.5
Autofluor counter	6959	3805	3895	4547	3781	4071	4964	6329

57: COc1cc(OC)cc(C(=O)NCC(=O)NCCN2C(=O)S/C(=C\c3ccc4c(c3)OCO4)C2=O)c1
58: COc1ccc(-c2nn(-c3ccccc3)cc2C(=O)OCC(=O)c2ccc(C)c([N+](=O)[O-])c2)cc1
59: Cc1ccc(OCC(=O)N2CCc3ccccc3C2)cc1
60: CC1CCN(c2ccc3nnc(CCC(=O)N4CCN(c5ccccc5F)CC4)n3n2)CC1
61: CC1CN(CCCCOc2ccc(Cl)c3ccccc23)CC(C)O1 (stereo not drawn)
62: O=C(COc1ccccc1C(=O)O)Nc1ccc(SC(F)F)cc1

Compound	57	58	59	60	61	62
RN4220 kill	6.7	1.4	7.3	2.5	-1.4	3.0
PrP UTR inh	-5.4	-16.0	-10.4	-23.6	-11.3	-36.1
Mtb hypoxia rep	1.1	13.4	6.7	-9.1	7.2	1.8
BJeLR viability	.	5.2	1.0	7.8	6.0	-1.1
ugtP null kill	7.4	-3.9	9.7	-4.4	18.2	4.9
Mtb hypoxia rep growth	2.4	3.2	3.5	1.0	8.0	12.9
Autofluor counter	3119	2646	3882	4811	3739	4221
